Screening results from PubChem.
Sa RN4220 lethal: growth inhibition of S. aureus RN4220, primary screen, OD600. inhibition, % (concentration not given with the values). 16 h. AID 1259311, 2017. 330,000 tested, 0.33% active;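 active means z-score of -3 or lower and OD600 up to 0.18 on both plates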;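 further: plate controls were untreated cells for no effect and reference antibiotic for full effect; stock transfer was 100 nL into about 80 µL; one replicate is shown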
Sa ugtP lethal: growth inhibition of ugtP-null S. aureus, primary screen, RN4220 ugtP deletion, OD600 | 16 h; some inactives read as strong as hits | growth inhibition, % (test concentration not listed) | 330,000 tested, 0.54% active | AID 1259309, 2017;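 active means z-score under -3 and OD600 up to 0.15 on both plates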;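 further: plate controls were untreated wells for no effect and antibiotic for full effect; wells of about 80 µL received 100 nL stock; the first replicate is given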
Mtb hypoxia inh: PubChem AID 1159583; 300,000 tested, 0.1% active; M. tuberculosis hypoxia-regulated fluorescent reporter, fluorescence; fluorescence inhibition, % (concentration not given with the values);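 active means 35 to 45% if threefold the growth effect, above 45% if 1.5-fold the growth effect; inactive means the rest, general growth blockers included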;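 further: wells of about 50 µL received 100 nL stock; 0% = vehicle wells and 100% = reference inhibitor wells; whole bacteria with a GFP reporter of the hypoxia response; strong numbers were not always called active; many hits fall short of the cut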
PrP UTR inh: inhibition of PrP 5' UTR reporter expression; cell-based PrP 5' UTR mRNA reporter, plate reader; inhibition, % (concentration not given with the values); 340,000 tested, 0.35% active;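 active means every replicate at 50% or more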;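 further: 0 = median of the neutral control wells; tested in H4 reporter cells; numbers are from one replicate; inactives centre near -14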
BJeLR lethal: MLPCN primary cell-based screen for lethality selective to Ras in HRASV12 cells; BJeLR (HRASV12) viability, CellTiter-Glo ATP luminescence, 48 h; reference of the scale not given here; inhibition, % (concentration not given with the values); 300,000 tested, 0.17% active; AID 1554, 2009;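 active means replicate mean above 50%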;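 further: 50 nL library stock added to about 25 µL; numbers are from one replicate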
Bead autofluor: compound fluorescence in toxin protease inhibitor counterscreen; compound autofluorescence counterscreen, microsphere flow cytometry; hits give high values; fluorescence intensity (concentration not given with the values); 360,000 tested, 3.1% active; AID 624483;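 active means at least 3 SD above the mean of all compounds, about 16000 in these data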;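 further: 100 nL of 1 mM stock went into each well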
Mtb hypoxia inh growth: also measured in Mtb hypoxia inh; calls as there; growth inhibition, %; measured here: M. tuberculosis growth (absorbance);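 0% = vehicle and 100% = reference antibiotic; read after six days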
* = called active by the depositor; . = not tested or not shown.

#1 Cc1cc(C)nc(/N=C2\NC(=O)CC(C(=O)O)N2c2ccc(C)c(C)c2)n1 (stereo not given)
#2 O=C(Nc1ccccc1N1CCN(c2ccccc2)CC1)c1ccccc1
#3 N#Cc1c(N)nc(SCC(=O)NCc2ccc3c(c2)OCO3)c(C#N)c1-c1cccs1
#4 Nc1sc2c(c1C(=O)NCCc1ccccc1)CCC2
#5 CC(NC(=O)Cc1ccc(F)cc1)c1ccccc1 (stereo not given)
#6 O=C(CCN1Cc2ccccc2C1)c1ccc2c(c1)OCCO2
#7 COc1cc(NC(=O)CSc2ccc(-c3ccccn3)nn2)cc(OC)c1
#8 COc1ccc(CNc2nc3ccccc3n2C(C)C)cc1
#9 COc1ccc(-c2nnc(SCC(=O)NC3CCCc4ccccc43)n2N)cc1 (stereo not given)
#10 C=CCNC(=S)Nc1cccc2[nH]ncc12
Assay by compound | 1 | 2 | 3 | 4 | 5 | 6 | 7 | 8 | 9 | 10
Bead autofluor | 2582 | 5125 | 2767 | 4480 | 2348 | 6990 | 5841 | 3184 | 2408 | 3510
Sa RN4220 lethal | 0.6 | 1.4 | 0.2 | 1.5 | -0.8 | -2.4 | 1.3 | -5.4 | -2.4 | 19
Mtb hypoxia inh | 8 | -1 | . | -1 | . | -3 | 9 | 20 | -2 | 11
Sa ugtP lethal | -3 | 29 | 3 | 9 | 0 | 3 | -2 | 9 | -2 | 8
Mtb hypoxia inh growth | 7 | 3 | . | 4 | . | 5 | 0 | 11 | 4 | 14
PrP UTR inh | -18 | -9 | -19 | -24 | -3 | -27 | -21 | -37 | 0 | -19
BJeLR lethal | -11 | 14 | 1 | . | 4 | 6 | -10 | 8 | 0 | -2

#11 COc1ccccc1NC(=O)CSc1nc(=O)n2cc(C)ccc2n1
#12 CN1C(=O)C(CC(N)=O)N(NC(=O)c2ccc(Cl)cc2)C1=S (stereo not given)
#13 Cc1ccc(NS(=O)(=O)c2c(C)[nH]c(C)c2C(=O)N2CCCCC2)cc1F
#14 N#CCC(=O)Nc1ccc(C(=O)N2CCN(c3ccccn3)CC2)cc1
#15 CCc1cccc(OCCOCCN2CCCC2)c1
#16 O=C(NCc1ccccc1)C1CCC(CNS(=O)(=O)c2cccs2)CC1 (stereo not given)
#17 Cc1cccc(N=Nc2c(C)nn(-c3ccccc3)c2N)c1C
#18 Cc1nc2c(=O)n(-c3ccc(F)c(Cl)c3)nc(C)c2s1
#19 COc1cc(NC(=O)C2CSC3(C)CCC(=O)N23)c(OC)cc1Cl (stereo not given)
#20 COC(=O)c1cccc(C23CC4(C2)C(CN(C)C4c2ccccc2)C3c2ccc(C(F)(F)F)cc2)c1 (stereo not given)
Assay by compound | 11 | 12 | 13 | 14 | 15 | 16 | 17 | 18 | 19 | 20
Bead autofluor | 6910 | 4378 | 6177 | 5252 | 4406 | 4433 | 2421 | . | 5099 | .
Sa RN4220 lethal | 1.4 | 2.0 | -1.4 | -0.4 | 3.4 | 2.6 | -9.3 | 2.8 | 4.6 | 4.7
Mtb hypoxia inh | 3 | -2 | 12 | -1 | . | 7 | 7 | 19 | 6 | 12
Sa ugtP lethal | 9 | 4 | -8 | 4 | 6 | 1 | -14 | 4 | -2 | -2
Mtb hypoxia inh growth | 3 | -4 | 2 | 8 | . | -4 | 3 | 14 | -1 | 8
PrP UTR inh | -18 | -16 | 0 | -10 | -14 | -10 | -39 | . | -15 | .
BJeLR lethal | 8 | -4 | 20 | 5 | -1 | -8 | -3 | -16 | 3 | .

#21 COc1ccc(CCC(=O)NCc2cnn(C)c2)cc1
#22 O=C(N/N=C1\CC2CC=CC12)c1ccccc1Cl (stereo not given)
#23 Cc1ccc(OCC(=O)N2CCc3ccccc3C2)c([N+](=O)[O-])n1
#24 CCCCn1c(N)c(N(CCC(C)C)C(=O)CCCc2nc3ccccc3s2)c(=O)[nH]c1=O
#25 Cc1cc(N2CCCC2)ccc1C=C(C#N)C#N
#26 Cc1ccc(-c2cc(C(=O)N/N=C/c3c(C)nn(C)c3C)c3ccccc3n2)cc1C
#27 Cc1noc(NS(=O)(=O)c2ccc(NC(=O)c3cccc(S(=O)(=O)Nc4ccccc4F)c3)cc2)c1C
#28 CNC(=S)N1CCC(n2cnc3ccccc32)CC1
#29 O=c1cc(-c2ccccc2Cl)oc2c([N+](=O)[O-])c(O)cc(O)c12
#30 Cc1nc(NC(=O)CN2CCC(O)(c3ccc(F)cc3)CC2)sc1C
Assay by compound | 21 | 22 | 23 | 24 | 25 | 26 | 27 | 28 | 29 | 30
Bead autofluor | 10874 | 3161 | 3389 | 5765 | 4329 | 4928 | 5462 | 4732 | 3619 | 4432
Sa RN4220 lethal | 1.7 | . | 8.5 | 1.0 | 7.0 | . | 5.4 | -0.5 | 87* | 0.7
Mtb hypoxia inh | 3 | . | 5 | 5 | 7 | . | 6 | 1 | 3 | -2
Sa ugtP lethal | 2 | . | 16 | 3 | 4 | . | 5 | 7 | 91* | 1
Mtb hypoxia inh growth | 7 | . | 13 | 6 | 9 | . | 14 | 3 | 3 | 6
PrP UTR inh | -11 | -23 | -3 | -6 | -25 | -22 | -15 | 24 | 16 | -14
BJeLR lethal | 0 | 15 | -10 | -1 | -14 | 9 | . | 0 | 6 | 14

#31 O=C(Cc1nnc(NC(=O)c2cccc([N+](=O)[O-])c2)s1)NCc1ccccc1
#32 Cc1nc2c(O)cccc2cc1CO
#33 Cc1cc(=O)c(C(=O)Nc2ccc(N3CCOCC3)cc2N2CCOCC2)nn1-c1ccccc1Cl
#34 Cc1ccc(CN2CCN(CC(=O)N/N=C/c3ccccc3F)CC2)cc1
#35 CC(=O)c1ccc(N2CCN(CN3C(=O)CC4(CCCC4)C3=O)CC2)c(F)c1
#36 O=C(c1cc2ccccc2o1)N1CCN(S(=O)(=O)c2ccc(Cl)s2)CC1
#37 CC(C)(C)NC(=O)C(=O)NNC(=O)c1ccccc1
#38 CCN(CC)C(=O)c1ncn(Cc2ccccc2)c1C(=O)N(CC)CC
Assay by compound | 31 | 32 | 33 | 34 | 35 | 36 | 37 | 38
Bead autofluor | 4247 | 3512 | 4012 | 4683 | 4130 | 3545 | 4950 | 4110
Sa RN4220 lethal | 0.5 | 5.9 | 0.5 | . | 1.3 | 21 | 7.0 | 5.2
Mtb hypoxia inh | 12 | 16 | 8 | . | 10 | . | -3 | 9
Sa ugtP lethal | 9 | 5 | 0 | . | 0 | -3 | 2 | 1
Mtb hypoxia inh growth | 7 | 9 | 2 | . | -3 | . | -1 | 13
PrP UTR inh | -1 | -7 | -24 | -57 | -6 | -1 | -9 | -25
BJeLR lethal | -6 | 2 | . | -6 | -8 | . | 2 | .

Random excerpt: 2 compounds from above, in no set order.
#38 CCN(CC)C(=O)c1ncn(Cc2ccccc2)c1C(=O)N(CC)CC
#32 Cc1nc2c(O)cccc2cc1CO
Assay by compound | 38 | 32
Bead autofluor | 4110 | 3512
Sa RN4220 lethal | 5.2 | 5.9
Mtb hypoxia inh | 9 | 16
Sa ugtP lethal | 1 | 5
Mtb hypoxia inh growth | 13 | 9
PrP UTR inh | -25 | -7
BJeLR lethal | . | 2

Complete entries from above. Screens in order: Bead autofluor | Sa RN4220 lethal | Mtb hypoxia inh | Sa ugtP lethal | Mtb hypoxia inh growth | PrP UTR inh | BJeLR lethal
Shown for `CC(=O)c1ccc(N2CCN(CN3C(=O)CC4(CCCC4)C3=O)CC2)c(F)c1` → 4130 | 1.3 | 10 | 0 | -3 | -6 | -8
Shown for `COc1cc(NC(=O)CSc2ccc(-c3ccccn3)nn2)cc(OC)c1` → 5841 | 1.3 | 9 | -2 | 0 | -21 | -10
Shown for `O=C(Cc1nnc(NC(=O)c2cccc([N+](=O)[O-])c2)s1)NCc1ccccc1` → 4247 | 0.5 | 12 | 9 | 7 | -1 | -6
Shown for `O=C(CCN1Cc2ccccc2C1)c1ccc2c(c1)OCCO2` → 6990 | -2.4 | -3 | 3 | 5 | -27 | 6
Shown for `COc1ccc(-c2nnc(SCC(=O)NC3CCCc4ccccc43)n2N)cc1` (stereo not given) → 2408 | -2.4 | -2 | -2 | 4 | 0 | 0

Part of the list above, as labelled records.
37. CC(C)(C)NC(=O)C(=O)NNC(=O)c1ccccc1
- Bead autofluor: 4950
- Sa RN4220 lethal: 7.0
- Mtb hypoxia inh: -3
- Sa ugtP lethal: 2
- Mtb hypoxia inh growth: -1
- PrP UTR inh: -9
- BJeLR lethal: 2
33. Cc1cc(=O)c(C(=O)Nc2ccc(N3CCOCC3)cc2N2CCOCC2)nn1-c1ccccc1Cl
- Bead autofluor: 4012
- Sa RN4220 lethal: 0.5
- Mtb hypoxia inh: 8
- Sa ugtP lethal: 0
- Mtb hypoxia inh growth: 2
- PrP UTR inh: -24
- BJeLR lethal: .
34. Cc1ccc(CN2CCN(CC(=O)N/N=C/c3ccccc3F)CC2)cc1
- Bead autofluor: 4683
- Sa RN4220 lethal: .
- Mtb hypoxia inh: .
- Sa ugtP lethal: .
- Mtb hypoxia inh growth: .
- PrP UTR inh: -57
- BJeLR lethal: -6
